PINK1 expr mod: PINK1 expression modulation; Potency, µM (series often up to 76.6 µM), for inactives: at the highest dose activation (PINK1 increase), most hits filed as activators; hit rate 0.2% among 410,000; PINK1 immunofluorescence, high-content cytometry, 24 h; active = well fitted activation curve with a large enough effect; inconclusive = small, poorly fitted or top-dose-only effect; inactive = flat fitted curve, though single readings scatter; cell line not stated here;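 note: potency is the fitted concentration of half-maximal effect; % of control where 0% means no effect; nearly all actives have a fitted effect of over 65% in size; a mitochondrial uncoupler was the plate control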
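Readout is PINK1 immunofluorescence, quantified alongside mitochondrial, cell and nuclear markers by laser-scanning microplate cytometry. Cells from a stable line were exposed to compound titrations (5 concentrations) for 24 hours, with CCCP controls.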
TRPML1 agonist: human mucolipin-1 channel agonism; Q9GZU1; TRPML1-expressing cells, Ca2+ dye fluorescence, FDSS; host cell line not named in the record; reference of the full effect not given here; activation, % (no concentration beside the values); hit rate 0.12% among 410,000; AID 624414; in the data active = activation above about 50%; inconclusive = about 30% to 50%; inactive = below about 30%; note: 0% is about no effect; the text of the record puts the active cut at 80%
Target sequence (Q9GZU1 whole entry, looked up): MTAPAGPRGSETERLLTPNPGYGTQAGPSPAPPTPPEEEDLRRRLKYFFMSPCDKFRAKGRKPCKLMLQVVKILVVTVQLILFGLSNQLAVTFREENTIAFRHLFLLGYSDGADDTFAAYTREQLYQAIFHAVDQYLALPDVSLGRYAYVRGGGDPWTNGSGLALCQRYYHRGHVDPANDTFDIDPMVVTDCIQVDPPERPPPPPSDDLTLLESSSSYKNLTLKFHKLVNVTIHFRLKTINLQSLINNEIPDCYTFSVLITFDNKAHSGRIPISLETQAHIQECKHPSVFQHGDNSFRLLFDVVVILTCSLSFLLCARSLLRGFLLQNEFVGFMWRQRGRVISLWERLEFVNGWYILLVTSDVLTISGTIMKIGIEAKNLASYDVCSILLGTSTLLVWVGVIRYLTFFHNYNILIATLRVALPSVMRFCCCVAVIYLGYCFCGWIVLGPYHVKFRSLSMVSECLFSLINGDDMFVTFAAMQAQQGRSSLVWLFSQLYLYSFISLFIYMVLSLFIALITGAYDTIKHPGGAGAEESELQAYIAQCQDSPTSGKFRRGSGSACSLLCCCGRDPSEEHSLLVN
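Tetracycline-induced TRPML1-DL cells are seeded and incubated overnight before loading with a no-wash Ca2+ dye and quencher. Agonist activity is taken from the 110 s fluorescence read following compound pin-transfer on an FDSS, before EC80 54-4 challenge.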
Six1-Eya2 blk: inhibitors of human Six1/Eya2 interaction; Q15475+O00167; AlphaScreen GST-Six1/His-Eya2 binding, biochemical; active compounds read low; control for the full effect not named in the record; activity change, % (test concentration not listed); hit rate 0.56% among 360,000; in the data active = activity change below about -65%; inconclusive = about -30% to -65%; inactive = above about -30%; note: % is set by controls: 0 for no effect and ±100 for the full control effect
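Homogeneous AlphaScreen proximity assay pairing GST-Six1 with His-tagged Eya2 (added as 5X mix: 250 nM and 500 nM) in 50 mM Tris pH 8.0, 300 mM NaCl, 1 mM TCEP. Glutathione donor and nickel acceptor beads; 1 h, 37 °C, dark.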
D2 ag: human D2 receptor agonism in beta-arrestin assay. DiscoveRx PathHunter D2 beta-arrestin, luminescence, 90 min; 100% = 57 uM dopamine signal. activation, % (concentration not given with the values). hit rate 0.084% among 360,000; in the data active = activation above about 40%; inconclusive = about 15% to 40%; inactive = below about 15%; note: compound concentration not given in the record; the text of the record calls up to 30% inactive
Target sequence (P14416 whole entry, looked up): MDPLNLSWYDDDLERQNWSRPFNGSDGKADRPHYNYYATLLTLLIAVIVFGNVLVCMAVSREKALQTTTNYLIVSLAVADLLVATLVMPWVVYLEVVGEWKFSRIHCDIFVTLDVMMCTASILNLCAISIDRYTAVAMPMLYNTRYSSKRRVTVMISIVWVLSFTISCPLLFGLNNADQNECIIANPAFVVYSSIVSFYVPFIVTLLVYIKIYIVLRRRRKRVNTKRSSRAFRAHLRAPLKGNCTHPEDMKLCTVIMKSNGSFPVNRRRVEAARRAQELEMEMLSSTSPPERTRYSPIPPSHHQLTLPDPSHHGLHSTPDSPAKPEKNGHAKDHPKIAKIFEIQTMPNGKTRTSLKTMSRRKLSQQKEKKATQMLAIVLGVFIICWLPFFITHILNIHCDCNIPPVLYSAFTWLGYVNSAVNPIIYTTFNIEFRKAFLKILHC
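Agonist mode: compounds alone added to overnight-plated D2 PathHunter cells for 90 min at 37 C, with 57 uM final dopamine (EC100) defining full response. Beta-arrestin recruitment detected by chemiluminescent reagent, read after 1 h at ambient temperature.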
CtBP-E1A inh: CtBP/E1A binding inhibition | activity change, % (no concentration beside the values) | hit rate 0.49% among 340,000 | AlphaScreen GST-E1A/His-CtBP binding, 1536-well; active compounds read low; control for the full effect not named in the record | AID 651724; in the data active means activity change below about -65%; inconclusive means about -30% to -65%; inactive means above about -30%; note: % is set by controls: 0 for no effect and ±100 for the full control effect
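Homogeneous bead-based format: GST-tagged E1A captured on glutathione donor beads, His-tagged CtBP on nickel acceptor beads; compounds precede bead addition by 2 h at 37 °C.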
TRPML1 blocker: human mucolipin-1 channel inhibition; Q9GZU1; TRPML1-inducible cells, Ca2+ dye fluorescence, FDSS; active compounds read low; inhibition of EC80 agonist-evoked calcium signal; activity change, negative = inhibition, % (test concentration not listed); hit rate 0.02% among 390,000; AID 624415; in the data active means activity change below about -50%; inconclusive means about -30% to -50%; inactive means above about -30%;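 note: stimulus is agonist 54-4 at its EC80 concentration; % is set by controls: 0 for no effect and ±100 for the full control effect; compound concentration not given in the record; the text of the record puts the active cut at -80%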
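Calcium fluorescence in TRPML1-DL cells induced overnight with Tet: a 110 s read after compound pin addition, then a 110 s antagonist read after challenge with 54-4 at 4 uM final (EC80).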
* marks the source's active call; other numbers are inactive results; ? = inconclusive; · = not tested or not shown; [ ] = remark or other dose.

canonical_smiles	TRPML1 agonist	Six1-Eya2 blk	TRPML1 blocker	D2 ag	PINK1 expr mod	CtBP-E1A inh
COC(=O)c1c(-c2cccs2)csc1NC(=O)CN1CCOCC1	0.3	-1.4	-18.6	-4.2	4.0%	-1.0
CC(=O)N(CCC(Cc1ccccc1)c1ccc2c(c1)OCO2)Cc1ccccc1F (stereo unspecified)	-0.4	2.4	-0.3	-3.2	0.5%	-0.9
O[C@H]1CN(Cc2cccs2)[C@@H](c2ccc(Cl)cc2)C[C@@H]1n1cc(C2CC2)nn1	0.5	4.2	8.2	-7.5	0.1%	-1.9
C=CCNC(=O)COc1ccc(S(=O)(=O)Nc2ccc(OCC)cc2)cc1	1.7	1.3	-15.7	-2.7	-2.6%	-15.4
N#CCCn1cc(/C=N/NC(=O)c2ccncc2)c(-c2ccc(F)cc2)n1	0.8	-12.8	-21.1	-3.9	-1.5%	-18.8
COC(=O)C1=NNC2(c3ccc(Cl)cc3)C(=O)N(c3ccc(Cl)cc3)C(=O)C12 (stereo unspecified)	-0.1	4.6	-12.0	14.9	-1.1%	2.5
O=C(Nc1ccccc1)c1ccc(NCc2cccnc2)c(S(=O)(=O)N2CCOCC2)c1	-0.5	-1.5	6.8	-0.5	2.2%	-4.4
CSc1nc2nc3c(c(=O)n2[nH]1)CN(Cc1ccccc1)CC3	1.2	?	-3.2	-1.5	-2.2%	?
O=C(O)c1cc(O)c2c(c1)[C@@H]([C@H]1c3cc(C(=O)O)cc(O)c3C(=O)c3c(O[C@@H]4O[C@H](CO)[C@@H](O)[C@H](O)[C@H]4O)cccc31)c1cccc(OC3O[C@H](CO)[C@@H](O)[C@H](O)[C@H]3O)c1C2=O (stereo partly specified)	-0.3	-82.4*	-9.0	-6.8	0.9%	-29.3
Cc1ccc(NC(=O)CCC(C(=O)O)N2C(=O)c3ccccc3C2=O)cc1 (stereo unspecified)	0.0	-8.2	76.7	-2.9	-1.7%	-1.0

Further records.
canonical_smiles	TRPML1 agonist	Six1-Eya2 blk	TRPML1 blocker	D2 ag	PINK1 expr mod	CtBP-E1A inh
CC(C)Oc1ccc(CN2CCC(n3nccc3NC(=O)c3cccnc3)CC2)cc1	0.0	-1.2	-13.8	-2.2	4.7%	-3.3
O=C(CN1CCOCC1)Nc1nc(-c2ccccc2)cs1	1.4	-4.7	24.3	-0.2	3.3%	5.5
C[C@@H]1CN(Cc2nc(-c3ccc(Cl)cc3)no2)C[C@H](C)O1	0.5	4.1	2.7	2.4	1.6%	0.0
O=C(NCCc1c[nH]c2ccc(Cl)cc12)c1ccc([N+](=O)[O-])cc1	-0.6	-1.5	6.8	2.6	1.8%	-2.2
CCc1nc2scc(-c3cccs3)c2c(=O)o1	0.0	1.9	-6.0	-1.7	-1.3%	6.8
CCOC(=O)C(C)(C)Sc1nc2c(cnn2-c2ccc(C)cc2)c(=O)[nH]1	2.6	1.0	14.4	-0.6	-2.5%	1.8
Cc1csc2ncnc(NCCc3ccccn3)c12	0.1	0.2	2.7	-0.8	2.5%	0.6
COCC(=O)Nc1nnc(COc2ccc(Cl)cc2)s1	-1.4	6.8	-1.4	-0.3	-1.1%	-2.1
Cc1sc(NC(=O)C2C3CCC(C3)C2C(=O)O)c(C(N)=O)c1-c1ccc(C(C)(C)C)cc1 (stereo unspecified)	-0.3	3.3	14.8	-2.9	2.0%	1.0
CCOc1ccc(-n2cnc3sc(C)c(C)c3c2=O)cc1	-0.3	1.1	-7.5	7.8	8.3%	2.9

Next part:
canonical_smiles	TRPML1 agonist	Six1-Eya2 blk	TRPML1 blocker	D2 ag	PINK1 expr mod	CtBP-E1A inh
O=C(C1CCC1)N1CCc2cc(S(=O)(=O)NCCCN3CCCCC3)ccc21	-0.4	1.6	-3.0	-2.4	0.7%	4.4
ONC(=Nc1ccccc1)c1ccc(Cl)cc1	1.2	2.7	3.8	1.2	1.3%	1.0
COc1ccc(CCNC(=O)CCCn2nc(C)c3sc4ccccc4c3c2=O)cc1OC	0.8	·	46.1	·	2.8%	·
CCOc1ccc(CN(C)CC(=O)c2c(N)n(Cc3ccccc3)c(=O)n(CC)c2=O)cc1OC	-0.8	18.8	7.3	-13.0	1.3%	0.0
CC(C)(C)C(=O)NCCc1nc(-c2ccccc2)no1	-0.8	6.0	15.3	1.7	0.1%	-17.3
COc1ccc(/C=N/NS(C)(=O)=O)c(OC)c1	-0.3	21.3	-9.8	-4.0	2.4%	6.1
CC(C)OCC(O)Cn1c(N2CCCC2)nc2c1c(=O)n(C)c(=O)n2C (stereo unspecified)	-0.9	6.0	-13.2	3.1	-1.1%	10.4
C[C@H](NS(=O)(=O)c1ccc2c(c1)OCCCO2)C(=O)N1CCN(Cc2ccc(C#N)cc2)CC1	-0.2	-3.4	-7.9	-1.1	1.0%	10.2
Cc1nc2sc(C(N)=O)c(N)c2c2c1CCCC2	0.6	?	-10.0	-2.0	-2.1%	?
CCOC(=O)N1CCN(Cc2nc3cc(NC(=O)CC)ccc3n2C)CC1	-1.3	-16.4	17.2	-3.1	1.4%	-5.6

Other records follow.
canonical_smiles	TRPML1 agonist	Six1-Eya2 blk	TRPML1 blocker	D2 ag	PINK1 expr mod	CtBP-E1A inh
COc1ccc(CNC(=O)Cn2c(=O)ccc3cc(S(=O)(=O)N4CCCC4)ccc32)cc1	2.0	·	-17.9	·	-4.4%	·
O=C(CNC(=S)NC(=O)c1cccc([N+](=O)[O-])c1)c1ccccc1	2.7	15.4	-3.2	-4.4	2.3%	-1.9
COc1ccc(CNC(=O)c2cc(-c3ccccc3OC)on2)cc1	1.7	-0.2	-7.0	-2.5	?	5.5
CCCCC(=O)Nc1cccc(-c2csc(-c3ccccc3)n2)c1	2.9	-2.0	3.1	-2.0	0.2%	6.6
FC(F)(F)c1ccc(-n2cn[nH]c2=S)cc1	0.8	2.8	-18.9	-0.2	0.9%	-5.6
NC(=O)NC(CC(=O)NCCCc1ccccc1)c1ccccc1Cl (stereo unspecified)	-0.4	10.7	5.0	-6.6	-0.5%	-0.9
O=C(NC(=S)Nc1ccc(CN2CCOCC2)cc1)c1ccc(-c2ccc(Cl)cc2)o1	0.8	3.3	-8.8	-3.3	0.5%	·
CN(C(=O)COC(=O)c1ccccc1OCc1ccc(Cl)cc1)c1c(N)n(Cc2ccccc2)c(=O)[nH]c1=O	-0.6	-6.2	-1.2	-0.6	7.9%	12.7
COc1ccc(C(C)=O)cc1COc1ccccc1[N+](=O)[O-]	0.7	2.5	26.0	0.0	2.3%	6.5
COC(=O)c1c(NC(C)=O)sc(C(=O)Nc2ccccc2C)c1C	2.7	3.9	-9.5	-0.8	7.0%	8.1

Next section:
canonical_smiles	TRPML1 agonist	Six1-Eya2 blk	TRPML1 blocker	D2 ag	PINK1 expr mod	CtBP-E1A inh
O=S(=O)(CCN1CCOCC1)c1ccccc1	0.7	-2.7	47.2	2.3	-0.4%	-18.0
COC(=O)CC1=C(C(=O)OC)C(c2cccc(OCC(N)=O)c2)C(C#N)=C(N)O1 (stereo unspecified)	1.0	1.0	15.3	0.8	-0.1%	4.9
CCCCn1cc([N+](=O)[O-])nc1C	-0.3	0.0	-5.2	-4.8	2.3%	·
Cc1cc(NC(=O)c2c(Cl)cccc2Cl)no1	1.6	-0.1	-11.8	-3.5	-1.1%	3.5
CCNC(=O)N(C)C[C@H]1N[C@@](C)(C(=O)OC)[C@H]2C(=O)N(C)C(=O)[C@@H]12	-0.6	3.7	-0.2	-0.3	-0.3%	8.7
C/C(=C\c1ccccc1)C(=O)NCCCn1ccnc1	0.3	-3.8	2.9	-0.4	-0.9%	·
CCOc1ccc(NS(=O)(=O)c2ccc(C(=O)NC3CCC(O)CC3)cc2)cc1 (stereo unspecified)	0.5	-0.3	2.7	-3.5	4.8%	14.1
CCCOc1c(Cl)cc(C(=O)Nc2ccc3c(c2)OCO3)cc1OCC	-0.5	-1.5	4.9	-1.6	3.7%	-4.8
O=C(CNC(=O)c1ccccc1C(F)(F)F)N/N=C/c1cccs1	0.4	4.2	1.6	-3.2	1.6%	·
COc1ccc(/C(C)=N/NC(=O)Cn2nc([N+](=O)[O-])cc2C)cc1	1.4	-0.4	-11.8	5.5	-0.1%	4.1

Other compounds follow.
canonical_smiles	TRPML1 agonist	Six1-Eya2 blk	TRPML1 blocker	D2 ag	PINK1 expr mod	CtBP-E1A inh
COc1ccc(-c2cccc(C(=O)Nc3cccc(C(=O)O)c3)c2)cc1	1.2	-6.5	17.4	0.9	4.1%	-0.7
CC(C)CCN1CC(C(=O)NCCC2=CCCCC2)CC1=O (stereo unspecified)	0.1	4.2	8.5	-0.9	-5.4%[38.3 µM]	-0.2
CCCCNC(=O)NS(=O)(=O)c1cnccc1Sc1ccc(Cl)cc1	-0.4	3.0	13.0	1.3	-3.2%	10.1
Cc1cccc(-c2cc(=O)c(C(=O)O)cn2-c2ccc(F)cc2F)c1	1.2	1.7	-3.7	-6.6	-2.0%	-23.9
CN(C)NC(=O)c1ccc([N+](=O)[O-])s1	0.2	-2.4	-0.1	-1.6	0.8%	·
CCCn1cc(S(=O)(=O)c2ccccc2)c(=O)c2cc(CC)ccc21	0.0	8.1	1.0	8.3	-0.6%	-10.6
O=C(NCc1cccc(F)c1)c1cccc(OC2CCN(C(=O)C3CC3)CC2)c1	1.4	1.3	-10.3	2.2	-0.2%	-7.0
O=C(Cn1ccc2cc(S(=O)(=O)N3CCCC3)ccc21)NCc1ccccc1	-0.5	0.2	10.0	0.2	4.1%	0.1
CC(=O)Nc1ccc(OCc2nnc(-c3ccc(Cl)cc3)o2)cc1	0.4	6.1	-5.3	3.4	2.5%	2.1
CC(=O)Oc1ccc(-c2cccc(C(=O)N3CCCCC3)c2)cc1	0.0	-1.6	17.7	0.4	-0.5%	3.7

Next part
canonical_smiles	TRPML1 agonist	Six1-Eya2 blk	TRPML1 blocker	D2 ag	PINK1 expr mod	CtBP-E1A inh
C[C@H](O)[C@@H]1C(=O)N2CCc3ccc(-c4ccccc4)cc3[C@@H]2C[C@@H]1N(C)C(=O)NC1CCCCC1	1.1	-1.0	-4.5	0.1	-0.8%	-4.2
CCn1c2ccccc2c2cc(C3C(C#N)=C(C)NC(C)=C3C#N)ccc21	-0.1	13.0	-4.9	-0.8	·	15.6
CC1(C)CC(=O)C2=C(C1)Nc1cc3c(cc1C2c1ccc2c(c1)OCO2)OCO3 (stereo unspecified)	0.5	-6.5	-5.5	-2.3	0.1%	-6.0
COc1ccc(-c2cnc(C)o2)cc1S(=O)(=O)Nc1c(C)cc(C)cc1C	0.0	·	33.9	·	1.4%	·
Cc1ccc(NC(=O)C2CCC(=O)N2)cc1C (stereo unspecified)	-1.0	6.6	1.6	-1.6	1.5%	4.1
COC(=O)c1sc(NC(=O)c2ccc(C)o2)nc1C	-0.7	0.0	9.3	1.2	1.9%	9.0
S=c1sc2ccccc2n1CCc1ccncc1	-0.4	0.1	-5.0	0.5	-0.5%	·
CCOC(=O)c1cnc2c(ccc3ccccc32)c1Nc1ccc(OC)c(OC)c1	-0.5	·	16.3	·	9.0%	·
Nc1c(Cl)cc(S(N)(=O)=O)cc1S(N)(=O)=O	3.5	0.1	36.8	-6.7	5.2%	·
CCOC(=O)Nc1cc2c(c(N)n1)N=C(c1ccccc1)CN2	15.9	21.7	-7.6	-1.6	4.0%	0.0
COc1ccc(/C=N/NC(=O)CN(C)C(=O)OCc2ccccc2)cc1OC	-0.8	-20.4	-12.0	-3.0	-0.5%	4.4
